Rango complex inh – inhibitors of Rango-importin beta complex formation | Q14974 | Rango CFP/YFP FRET sensor + importin beta, 45 min | Potency, µM (top dose mostly 92.2 µM), for inactives: at the highest dose inhibition of complex formation | 340,000 tested, 0.031% active | AID 540263; active = rising FRET ratio curve, often small or poorly fitted; inconclusive = mostly compound fluorescence or quenching in the first reads; inactive = flat curves in all reads;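 note: potency is the fitted concentration of half-maximal effect; 0% = DMSO wells and 100% = buffer wells lacking importin beta; nearly all actives have a fitted effect of over 15% in size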
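FRET biosensor Rango (snurportin 1 IBB between N-terminal EYFP and C-terminal Cerulean), 50 nM in PBS/1 mM DTT/0.02% Tween-20/0.1% BSA, preincubated 5 min RT with compound; 0.125 microM importin beta added, 45 min RT, CFP/YFP FRET ratio read.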
miR-21 reporter – raises the signal of a miR-21 reporter; HeLa miR-21 FLuc reporter, luciferase, 48 h; AID 2288; 340,000 tested, under 10 active; Potency, µM (titrated, usually from 38.3 µM), for the others: at the highest dose reporter change, positive = more light; active = well fitted rising curve with a large enough effect; inconclusive = small, poorly fitted or top-dose-only effect; inactive = no such curve, though single readings can be large or run the other way;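 note: % of control where 0% means no effect; miR-21 action dims this reporter so a rising signal means less miR-21 action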
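HeLa miR-21-FLuc reporter line, endogenous miR-21; 2000 cells/well in DMEM/10% FBS; compound titration up to ~40uM final, 48 h, 37 degree Celsius; luciferase detection reagent, 15 min lysis, CCD luminescence.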
GLA inh pH 4.5 – blocks human alpha-galactosidase A at pH 4.5; 230,000 tested, under 10 active; P06280; purified enzyme, 4-MU-alpha-Gal fluorescence, pH 4.5; activity change, negative = inhibition, % at 105 µM; inconclusive = small, poorly fitted or top-dose-only inhibition, or a rising curve; inactive = flat fitted curve, though single readings scatter; no compound was filed as active;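 note: 0% = full activity with enzyme and -100% = basal without enzyme; dose as in the result columns while the protocol names 77 µM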
Target sequence (P06280 whole entry, looked up): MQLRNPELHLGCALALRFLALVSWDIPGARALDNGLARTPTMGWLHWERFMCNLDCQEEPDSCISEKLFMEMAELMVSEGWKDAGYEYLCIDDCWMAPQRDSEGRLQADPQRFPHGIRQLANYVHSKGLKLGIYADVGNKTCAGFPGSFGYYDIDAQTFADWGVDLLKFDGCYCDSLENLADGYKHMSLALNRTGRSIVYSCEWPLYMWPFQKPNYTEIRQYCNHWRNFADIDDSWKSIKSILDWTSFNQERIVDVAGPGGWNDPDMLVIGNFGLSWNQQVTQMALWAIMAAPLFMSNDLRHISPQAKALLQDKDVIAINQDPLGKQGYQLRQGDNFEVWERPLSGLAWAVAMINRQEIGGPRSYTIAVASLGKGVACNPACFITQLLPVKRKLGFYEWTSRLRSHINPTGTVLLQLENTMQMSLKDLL
Rango dissoc inh – prevents RanGTP from dissociating the Rango-importin beta complex; Potency, µM (titrated, usually from 46.1 µM), without a hit: top-dose activity change, negative = inhibition; Biochemical FRET Rango-importin beta, RanGTP-induced dissociation; 340,000 tested, 0.071% active; active means falling FRET ratio curve, often poorly fitted, with flat reads before Ran was added; inconclusive means other falling curves, or compound fluorescence or quenching; inactive means flat or rising ratio curve;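 note: potency is the fitted concentration of half-maximal effect; % of control where 0% means no effect; nearly all actives have a fitted effect of over 45% in size; -100% = wells without RanGTP and RCC1; the record marks most hits as doubtful in a second field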
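Rango FRET biosensor (snurportin-1 IBB flanked by N-terminal EYFP and C-terminal CFP10) at 0.1 uM, with 0.25 uM importin beta in PBS, 1mM DTT, 0.02% Tween-20, 0.1% BSA. 0.6 uM Ran, 2mM GTP and 0.2 uM RCC1 were then added for 45 min at room temperature. Inhibition read as loss of FRET rise.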
* marks the source's active call; other numbers are inactive results; ? = inconclusive; nt = not tested or not shown; & = joins results of further samples. Not all compounds are listed; count on the stated rates, not on these rows.

structure	Rango complex inh	miR-21 reporter	GLA inh pH 4.5	Rango dissoc inh
CCCCOc1ccc(-c2nnc(-c3ccncc3)o2)cc1	?	-30%	-14	-18%
CCc1nnc(NS(=O)(=O)c2ccc(NC(=S)NC(=O)c3ccc(F)cc3)cc2)s1	-6.3%	-5%	0	17%
CC(C)c1onc(C(=O)N(C)Cc2ccccc2)c1[N+](=O)[O-]	-0.4%	6%	-9	23%
CCCn1c(SCC(=O)Nc2nc(-c3ccc(OC)cc3)cs2)nc2c1c(=O)n(C)c(=O)n2C	1.6%	-4%	1	-1%
Cc1nn(C(=O)c2cccs2)c(C)c1CN1C(=O)c2ccccc2C1=O	-0.5%	-2%	5	6%
S=C(NCc1ccccc1)NCc1ccc(CNC(=S)NCc2ccccc2)cc1	?	-14%	2	-8%
Cc1ccc(C)c(NC(=O)c2cnn(-c3ccccc3)c2C)c1	1.6%	-34%	nt	2%
Cc1nn(Cc2ccccc2)c(C)c1NC(=O)c1cc(-c2cccs2)on1	-2.6%	26%	-11	1%
CCN(CC)C(=O)c1c(C)[nH]c(=S)c(C#N)c1-c1ccco1	-3.1%	-8%	4	4%
CCCCN(C(=O)c1ccco1)c1c(N)n(CCC)c(=O)[nH]c1=O	0.6%	nt	nt	30%
COc1ccc(NC(=O)c2noc3c2CCCCC3)cc1	-4.6%	-54%	-3	-10%
CC[C@]1(C(=O)OC)[C@H]2C(=O)N(C)C(=O)[C@H]2[C@H]2CN=C(SC)N21	-1.3%	nt	nt	3%
Cc1cc(N2CCCCC2)n2nc(C)c(-c3ccccc3)c2n1	0.3%	-17%	-5	-23%
c1ccc2c(c1)[nH]c1c(N3CCCC3)ncnc12	-1.2%	17%	6	26%
CC(C)C(=O)NNC(=O)CC(=O)Nc1ccccc1C(=O)O	0.3%	-8%	-4	-6%
CC1CCN(CCCNC(=O)c2ccc(CSCc3cccc(Cl)c3)o2)CC1	1.7%	-8%	-9	-3%
CNC(=O)c1c(NC(=O)CCS(=O)(=O)c2ccc(C)cc2)sc(C)c1C	-0.7%	nt	nt	-6%
O=C(NCC(c1ccco1)N1CCc2ccccc2C1)c1ccc([N+](=O)[O-])cc1 (stereo unspecified)	5.1%	nt	nt	-1%
COc1ccc(OC)c(NC(=O)C2CC(/C=C/c3ccccc3)=NO2)c1 (stereo unspecified)	-1.2%	-1%	nt	-3%
O/N=C(\c1ccc(Cl)cc1)c1ncc(C(F)(F)F)cc1Cl	0.1%	5%	-8	5%
CSc1nnc(-c2ccccc2)o1	2.0%	-7%	-4	5%
O=C(NCc1cccnc1)c1ccc(-c2cccc(Cl)c2Cl)o1	-0.2%	-26%	-2	-5%
COC(=O)CCC(=O)Nc1ccccc1C(N)=O	1.3%	-1%	10	-3%
CCOC(=O)c1nn(-c2ccc(C)cc2)c2nc(Nc3ccccc3)cc(=O)n12	-0.8%	-2%	-2	3%
Cc1cccc(CN2CCN(C(=O)c3ccccc3F)CC2)c1	4.5%	2%	-5	16%

The last 2 compounds of the section above come first, to join the parts:
structure	Rango complex inh	miR-21 reporter	GLA inh pH 4.5	Rango dissoc inh
CCOC(=O)c1nn(-c2ccc(C)cc2)c2nc(Nc3ccccc3)cc(=O)n12	-0.8%	-2%	-2	3%
Cc1cccc(CN2CCN(C(=O)c3ccccc3F)CC2)c1	4.5%	2%	-5	16%
N/C(=N\OC(=O)C12CC3CC(CC(C3)C1)C2)c1cccnc1	-4.1%	-43%	3	7%
CN(C)Cc1c(OC(=O)c2ccc(N)cc2)ccc2ccccc12	0.4%	nt	nt	2%
OCC1(CCc2ccccc2)CCN(Cc2cc(Cl)ccc2O)CC1	4.1%	1%	-2	0%
COC(=O)c1ccccc1NC(=O)COc1ccc2c(c1)OCO2	1.0%	1%	nt	13%
Cc1oc2c(CN3CCCC(C)C3)c(O)ccc2c(=O)c1-c1ccccc1 (stereo unspecified)	-1.7%	0%	nt	12%
O=c1n(-c2ccccc2)c(=O)n2n1CC(O)C2	0.5%	0%	3	-3%
O=C(C1CC(=O)N(c2ccc3c(c2)OCCO3)C1)N1CCN(c2cccc(C(F)(F)F)c2)CC1 (stereo unspecified)	0.9%	nt	nt	9%
CCN1C(=O)/C(=C\N2CCN(c3ccc(F)cc3)CC2)SC1=S	-0.8%	0%	-7	0%
O=C(Nc1ccc(C(F)(F)F)cc1)C1(c2ccccc2)CC1	-3.1%	-15%	-4	3%
Cn1c(N)c(C(=O)c2cc(-c3ccccc3)nc3ccccc23)c(=O)n(C)c1=O	0.2%	-7%	2	1%
COc1cc(OC)cc(C(=O)N[C@H](C(=O)OCC(=O)NC(=O)NC(C)(C)C)C(C)C)c1	-1.2%	0%	2	1%
Cc1ccc(C)c2[nH]c(=O)c(CN(CCN3CCOCC3)Cc3nnnn3CC3CCCO3)cc12 (stereo unspecified)	-0.5%	-4%	6	0%
CC(C)CN1CCC(=O)N(CCO)CC1	-0.1%	-2%	nt	-16%
CCOc1ccc(N(CC(=O)NC2CC3CCC2C3)S(=O)(=O)c2ccccc2)cc1 (stereo unspecified)	-0.3%	0%	nt	0%
O=c1oc2ccccc2c(Nc2ccccc2O)c1[N+](=O)[O-]	-1.3%	-7%	-2	-3%
Cc1cccc(OCC(O)Cn2ccnc2C)c1 (stereo unspecified)	1.4%	0%	nt	-12%
FC(F)Sc1ccc(-n2cc(-c3ccccc3)[n+]3c2CCC3)cc1	-1.5%	26%	5	5%
COc1ccc(-n2nc(C(=O)NCC(=O)N3CCN(c4ccccc4)CC3)c3ccccc3c2=O)c(OC)c1	0.2%	-22%	nt	1%
Cc1cc(NC(=O)c2ccc(Cl)cc2Cl)n(CCC#N)n1	-2.3%	-2%	2	-1%
O=C(c1cccc(NS(=O)(=O)c2ccc(F)c(F)c2)c1)N1CCN(Cc2ccccc2)CC1	2.5%	-8%	0	-1%
Cc1ccc(CN(c2ccc(C(=O)NCC3CCCO3)cc2)S(C)(=O)=O)cc1 (stereo unspecified)	-0.6%	0%	7	-10%
CSc1ccccc1NC(=O)Nc1cccc(F)c1	-1.3%	-26%	4	-12%
CC(=O)c1cccc(NC(=O)CN(C)S(=O)(=O)c2ccc3c(c2)CC(C)N3C(C)=O)c1 (stereo unspecified)	-0.6%	7%	nt	1%
CCC1Nc2ncnc(N3CCCCC3)c2N(Cc2ccccc2)C1=O (stereo unspecified)	-4.5%	nt	nt	0%
COC(=O)c1ccc(NC(=O)CCN2CCOCC2)cc1	0.5%	0%	nt	3%

The list continues.
Molecule	Rango complex inh	miR-21 reporter	GLA inh pH 4.5	Rango dissoc inh
COc1ccccc1-c1nc(SCC(=O)N2CCOCC2)n[nH]1	5.7%	-3%	nt	-13%
Cc1nc2ccccc2nc1CSc1nncs1	0.6%	5%	nt	-14%
COc1ccc(OC)c(C2CC(c3ccccc3)=NN2C(=S)Nc2ccccc2)c1 (stereo unspecified)	0.2%	-5%	-14	17%
CC(=O)Oc1ccc(-c2csc(Nc3ccc(S(N)(=O)=O)cc3)n2)cc1	-0.2%	-4%	-18	0%
O=C(Cc1c(F)cccc1Cl)NCCc1c[nH]c2ccccc12	1.4%	-7%	nt	4%
O=c1[nH]cnc2c1sc(=S)n2-c1ccccc1	0.6%	-6%	-7	-7%
COc1ccc(N2CCN(C(=O)C3CCN(C(=O)c4ccc([N+](=O)[O-])cc4)CC3)CC2)cc1	-2.3%	0%	nt	-8%
Cc1cccc(NC(=O)CSCc2cc(=O)n3ccsc3n2)c1C	-0.7%	2%	nt	29%
O=C(CSc1ncn[nH]1)N1CCN(c2nnc(-c3ccccc3)c3ccccc23)CC1	0.2%	10%	-4	1%
COc1ccc(C2C(C(=O)OCC(=O)Nc3ccc(C)cc3)CCC(=O)N2c2ccc(OC)cc2)cc1 (stereo unspecified)	3.5%	-3%	-6	34%
O=C(COc1ccc(Cl)cc1)N1CCN(S(=O)(=O)c2ccc(Cl)cc2)CC1	5.2%	1%	9	-18%
Oc1c(C(c2ccccc2Cl)N2CCCC2)ccc2cccnc12 (stereo unspecified)	4.1%	?	-1	12%

Fetched by compound from above, 3 records:
Molecule	Rango complex inh	miR-21 reporter	GLA inh pH 4.5	Rango dissoc inh
O=C(CSc1ncn[nH]1)N1CCN(c2nnc(-c3ccccc3)c3ccccc23)CC1	0.2%	10%	-4	1%
COc1ccccc1-c1nc(SCC(=O)N2CCOCC2)n[nH]1	5.7%	-3%	nt	-13%
O=c1[nH]cnc2c1sc(=S)n2-c1ccccc1	0.6%	-6%	-7	-7%

Next entries:
Molecule	Rango complex inh	miR-21 reporter	GLA inh pH 4.5	Rango dissoc inh
CCC(Sc1nc2ccccc2c(=O)[nH]1)C(=O)O (stereo unspecified)	0.3%	-8%	2	2%
COc1cc(NC(=O)CCC(=O)Nc2ccc3nc(N4CCOCC4)cc(C)c3c2)cc(OC)c1OC	-0.2%	-5%	nt	0%
CC1(C)CC(=O)c2cc(OCC(=O)NCCN3CCCc4ccccc43)ccc2O1	-1.2%	-7%	9	0%
COc1ccc(S(=O)(=O)Nc2cccc(C)n2)c2ccccc12	-4.4%	1%	-6	-9%
COC(=O)N1CN(C(=O)OC)CN(C(=O)OC)C1	-0.7%	-2%	-3	1%
O=C(N=Nc1c(O)[nH]c2ccc(Cl)cc12)c1cc(-c2cccs2)nc2ccccc12	0.5%	-11%	-1	1%
COc1ccc(S(=O)(=O)N(C)CC(=O)NC2CCCC2)cc1OC	2.5%	-10%	nt	19%
O=C(c1cc(-c2ccc3c(c2)OCO3)on1)N1CCCCC1	3.7%	8%	nt	0%
O=C(c1ccco1)N1CCN(C(=O)C2CCCO2)CC1 (stereo unspecified)	-0.3%	-8%	-1	-11%
O=C(CCc1ccccc1)N=C1SC2CS(=O)(=O)CC2N1c1ccccc1F (stereo unspecified)	-3.8%	-4%	nt	0%
CC(C)(C)C(=O)Nc1ccc(F)cc1[N+](=O)[O-]	0.2%	-3%	-6	-5%
CCOC(=O)C1CCCN(C(=O)Cn2nc(C)c3c(C)n(-c4ccccc4)nc3c2=O)C1 (stereo unspecified)	-1.0%	-1%	nt	3%
CC(C)Sc1nc(SCC(=O)NCc2ccco2)c2c3c(sc2n1)COC(C)(C)C3	-2.3%	-33%	3	3%
O=C1CC(c2ccc(OCCCCCOc3ccc(C4CC(=O)NC4=O)cc3)cc2)C(=O)N1 (stereo unspecified)	-3.5%	16%	nt	0%
COc1ccccc1CNC(=O)CCn1c(=O)sc2ccccc21	0.0%	-7%	7	1%
COCCCn1cc(C(=O)c2cc(OC)ccc2OCC(=O)N2CCCCC2C)cc(C#N)c1=O (stereo unspecified)	0.0%	-11%	-6	15%
CCCCCOC(=O)C1=C(C)NC(=O)NC1c1ccc([N+](=O)[O-])cc1 (stereo unspecified)	3.4%	2%	nt	?
Oc1ccc(NC(=S)Nc2ccccc2)cc1	-3.0%&7.4%	-13%&-18%	22&-4	13%&-4%
CCC(C)(C)NC(=O)C(c1sccc1C)N(Cc1ccco1)C(=O)c1csnn1 (stereo unspecified)	0.5%	5%	nt	-12%
O=C(c1ccccc1-c1nc2ccccc2[nH]1)N1CCOCC1	1.5%	-1%	0	-1%
CN(C)CC(=O)Nc1ccc(Oc2ccc(Cl)cc2)cc1	2.8%	-16%	?	16%
CC(=O)NC(Cc1cccc(F)c1)C(=O)NC1CCN(C(=O)Nc2ccccc2)CC1 (stereo unspecified)	2.4%	-1%	nt	-1%
